Assay outcomes from PubChem.
Env fusion inh = inhibitors of HIV Env-mediated cell fusion; HeLa-JRFL Env/CEM21 cell fusion, luciferase; inhibition, % at 12.3 µM; actives 1.1% (n = 360,000);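 active = mean replicate inhibition score of at least 50 and every replicate individually at or above 50; inconclusive = only one of the two criteria met; inactive = mean below 50 and not all replicates reaching 50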;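 note: 0% = plate neutral controls and 100% = maraviroc near 300 nM; one replicate is shown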
eIF4H inh = inhibitors of RNA binding by human eIF4H; Q15056; eIF4H fluorescence polarization binding assay; inhibition, % at 35 µM; actives 0.94% (n = 290,000); AID 2012;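 active = 50% or more with normal probe brightness, or confirmed in later tests; inconclusive = above 50% with abnormal brightness, or retests that disagree; inactive = below 50% or failed in later tests; about a fifth of its hits are not listed in these tables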;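 note: calls also rest on retests at 20 µM and on dose response follow-up; 0% = protein and probe with vehicle and 100% = probe without protein; strong numbers were not always called active; many hits fall short of the cut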
Rce1 inh = inhibitors of yeast Ras-converting enzyme; yeast membranes, quenched prenylated peptide cleavage fluorescence; actives 0.27% (n = 290,000); Q03530; calls only;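 active = fall in fluorescence gain of 50% or more versus controls, with final raw signal at or below 3038400; inconclusive = same 50% fall but final raw signal above 3038400; inactive = fall in fluorescence gain under 50%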;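 note: plate controls were neutral control wells for no effect and wells lacking membranes for full effect; tested at 10 µM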
PABP polyA inh = PABP-poly(A) binding inhibition; inhibition, % at 35 µM; actives 1% (n = 290,000); PABP-poly(A) RNA binding, fluorescence polarization; AID 2014; P11940;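 active = 50% or more with normal probe brightness, or confirmed in later tests; inconclusive = above 50% with abnormal brightness, or retests that disagree; inactive = below 50% or failed in later tests; about a fifth of its hits are not listed in these tables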;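 note: calls also rest on retests at 20 µM and on dose response follow-up; controls were probe without protein and protein plus probe with vehicle; some compounds called inactive have numbers as strong as hits; many hits fall short of the cut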
Target sequence (P11940 whole entry, looked up): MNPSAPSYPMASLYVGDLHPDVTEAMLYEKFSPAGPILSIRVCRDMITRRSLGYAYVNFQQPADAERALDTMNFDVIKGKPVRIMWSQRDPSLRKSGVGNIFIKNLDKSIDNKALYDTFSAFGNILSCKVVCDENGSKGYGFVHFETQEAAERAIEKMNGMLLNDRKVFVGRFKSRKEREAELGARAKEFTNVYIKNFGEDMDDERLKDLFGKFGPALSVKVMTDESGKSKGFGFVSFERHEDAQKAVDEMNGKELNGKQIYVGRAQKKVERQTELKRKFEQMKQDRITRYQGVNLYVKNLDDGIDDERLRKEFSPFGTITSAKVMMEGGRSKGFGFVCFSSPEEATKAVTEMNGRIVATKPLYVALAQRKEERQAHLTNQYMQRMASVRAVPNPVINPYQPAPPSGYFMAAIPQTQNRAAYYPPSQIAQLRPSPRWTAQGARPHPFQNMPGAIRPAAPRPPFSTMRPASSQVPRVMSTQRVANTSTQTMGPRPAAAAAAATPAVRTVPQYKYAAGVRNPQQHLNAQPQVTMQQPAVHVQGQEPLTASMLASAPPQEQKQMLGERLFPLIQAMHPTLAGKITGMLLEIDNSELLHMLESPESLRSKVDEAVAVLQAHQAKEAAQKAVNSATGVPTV
CSC inhib = cancer stem cell inhibition; cancer stem cell-like cells viability, luminescence; inhibition, % at 7.5 µM; actives 1.1% (n = 300,000);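 active = mean at 75% or more and at least half the replicates too; inconclusive = mean and replicates disagree; tested in HMLE shEcad cells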;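 note: 0% = median of negative and 100% = median of positive control wells; the first replicate is given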
MT1-MMP act inh = blocks activation of human MT1-MMP; P50281; HT1080 RFP-PRO-GFP cells, GFP/RFP ratio fluorescence, overnight; percent of plate control window, DMSO zero; GFP/RFP ratio change, % at 20 µM; actives 0.061% (n = 360,000);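 active = GFP/RFP ratio change of at least 30% with cell ATP level not reduced by more than half and red fluorescence within 50% of control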; note: strong numbers were not always called active
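Material: RFP-PRO-GFP reporter HT1080 cells. Dosing: single-point 20 µM compound, 1% DMSO. Controls: DMSO and RFP-L50D-GFP cell wells. Timing: cells overnight before dosing, compound overnight, 37 °C, 5% CO2. Measure: GFP/RFP fluorescence ratio.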
UUG fidelity = yeast start codon fidelity modulation; S. cerevisiae UUG-firefly luciferase reporter, luminescence/redox ratio; activity score, % at 18.7 µM; actives 0.13% (n = 350,000); AID 602363;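 active = replicate mean at a twofold rise or more, about +100% in these data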;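 note: firefly luciferase made from a UUG start codon reports start codon fidelity; reporter light over untreated wells divided by growth signal over untreated wells; some hits fall short of that in this replicate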
eIF4H inh retest = also measured in eIF4H inh; calls as there; inhibition, %; compound at 20 µM; confirmation average;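 mean of two retest wells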
PABP polyA inh retest = also measured in PABP polyA inh; calls as there; inhibition, %; compound at 20 µM; confirmation repeats;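 mean of two retest wells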
MT1-MMP act inh RFP = recorded beside MT1-MMP act inh, whose call it bears; RFP signal change, %; measured here: RFP expression control read;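 0 = vehicle wells; hits needed this value within 50% of zero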
* = called active by the depositor; i = inactive; u = inconclusive; x = not tested or not shown.

SMILES | Env fusion inh | eIF4H inh | Rce1 inh | PABP polyA inh | CSC inhib | MT1-MMP act inh | MT1-MMP act inh RFP | UUG fidelity | others
CC(NC(=O)C1CC1)c1ccc(-c2ccccc2)cc1 (centres undefined) | 3 | 1 | i | 11 | -12 | 8 | -3 | -21
NC1=NC(=O)C2(COC(c3ccncc3)OC2)S1 (centres undefined) | 16 | 2 | i | 0 | -11 | 0 | 1 | x
OC1(c2ccccc2F)CCN(Cc2nnc(-c3ccccc3)o2)CC1 | -30 | -3 | i | 4 | -13 | 0 | 1 | -19
CCOc1cc(/C=C2/C(=N)N3C(=NC2=O)SN=C3S(=O)(=O)CC)ccc1OC(=O)c1ccco1 | -7 | -6 | i | -2 | 2 | -38 | 9 | -15
N#CCC(=O)Nn1c(=S)[nH]c2ccccc2c1=O | -4 | -7 | i | -8 | -15 | 0 | 1 | x
NCC(c1ccc(Cl)cc1Cl)c1c[nH]c2ccccc12 (centres undefined) | 24 | -10 | i | -5 | 95* | -4 | -4 | -14
COC(=O)CNc1cccc(C(F)(F)F)c1 | -6 | -3 | i | -2 | x | -2 | 2 | -15
Cc1nnc(SCC(=O)Nc2nccs2)s1 | -4 | -2 | i | 7 | -10 | 0 | -1 | -34
CCN=C1SC(C(N)=O)CC(=O)N1CC (centres undefined) | 52 | -1 | i | 0 | -6 | 1 | -1 | 10
COc1ccc(CCN(C)C2CCCN(S(=O)(=O)c3ccccc3F)C2)cc1OC (centres undefined) | -20 | 6 | i | -4 | 3 | -2 | -3 | 2
Cc1cc(C)cc(-n2nnnc2SCC(=O)Nc2nc(-c3ccc(F)cc3)cs2)c1 | x | -2 | i | -3 | 0 | 0 | -4 | -20
CCCC1OC(c2cc3c(cc2Cl)OCO3)OCC1CC (centres undefined) | 11 | x | x | x | x | 0 | 1 | -3
CN1CCN(C(=O)c2cccc(-c3cc(O)c4ncccc4c3)c2)CC1 | -14 | x | x | x | -1 | -6 | 1 | -5
Cc1nn(-c2ccccn2)c(N)c1N=O | -235 | 10 | i | 8 | -14 | 5 | 2 | x
CCOC(=O)/C(C#N)=C/c1c(N2CCN(Cc3ccc4c(c3)OCO4)CC2)nc2c(C)cccn2c1=O | 9 | 1 | i | -11 | -1 | -1 | -4 | -7
COc1ccc(NC(=O)CSc2nnc3ccc(-c4cccnc4)nn23)c(OC)c1 | -23 | x | i | x | -5 | 0 | 3 | -3
COc1ccc(N(C(=O)c2ccc(Br)o2)C2C=CS(=O)(=O)C2)cc1 (centres undefined) | x | -7 | i | -5 | -1 | 4 | 3 | -16
CC(=O)Nc1ccc(S(=O)(=O)Nc2ccc(N3CCOCC3)cc2)cc1 | x | -5 | i | 2 | 9 | 2 | 4 | -10
COc1ccccc1C(=O)NC(=S)/C=C1/N(C)c2ccccc2C1(C)C | x | 12 | i | 34 | 6 | 55* | 32* | x
COc1ncc(-c2ccc3c(c2)S(=O)(=O)c2cccc(C(=O)O)c2C3=O)cn1 | 2 | x | x | x | -13 | -3 | 4 | -7
CCOC(=O)CCN(c1ccccc1)S(=O)(=O)c1ccc(-c2ccc(=O)[nH]n2)s1 | -4 | -10 | i | 7 | x | 2 | 3 | -13
Cc1ccc(NCc2ccccc2O)c(C)c1 | -3 | 5 | i | 14 | -10 | -3 | -8 | x
O=C1SC(SCc2ccccc2)=N/C1=C\c1ccco1 | -11 | 85 | i | 44 | x | -3 | 10 | -22 | eIF4H inh retest=1;PABP polyA inh retest=6
CCN(CC(=O)NCc1ccc(Cl)cc1)C(=O)c1oc2ccccc2c1C | 20 | -10 | i | 3 | 1 | 1 | 5 | -9
COc1ccc(CCNC(=O)c2cc(S(=O)(=O)N(C)c3ccccc3)ccc2Cl)cc1 | 17 | -14 | i | 4 | -31 | 6 | -5 | -17
CCCN(C1CCS(=O)(=O)C1)S(=O)(=O)c1cc(OC)ccc1OC (centres undefined) | -4 | x | x | x | -10 | -1 | -1 | -4
N#CC1=C(SCC(=O)Nc2nccs2)NC(=O)CC1c1ccccc1 (centres undefined) | x | 3 | i | -3 | -1 | -4 | 5 | -12
CCN(CC)c1ccc(NC(=O)CSc2nc3ccccc3c(=O)[nH]2)cc1 | x | -1 | i | -1 | 19 | 3 | -1 | -1
O=C(NCC(c1cccs1)N1CCOCC1)C1CCN(S(=O)(=O)c2cccc(C(F)(F)F)c2)CC1 (centres undefined) | 0 | x | i | x | 8 | 2 | -1 | x
OCCC1CN(Cc2ccccc2-c2ccco2)CCN1Cc1ccccc1 (centres undefined) | -21 | 22 | i | -2 | 4 | x | x | -1
CCc1ccc(C(=O)Nc2cc(S(=O)(=O)N3CCOCC3)ccc2N2CCOCC2)cc1 | x | x | x | x | -24 | -2 | -1 | -5
Cc1ccc(C)c(NC(=O)c2cc(S(=O)(=O)N3CCCCC3)c[nH]2)c1 | 17 | 12 | i | -9 | -1 | 2 | 2 | -1
Cc1nc(-c2ccc(F)cc2)c(CC(=O)N(C)CC(=O)Nc2cccc(F)c2)s1 | -22 | x | x | x | x | 1 | 1 | -1
COc1cc2c(C)nc(C)c(C#N)c2cc1OC | x | -15 | i | 8 | 16 | -6 | 0 | 1
CCCCc1ccc(NC(=O)Nc2cc(C)nn2C)cc1 | x | -2 | i | 7 | u | -3 | -5 | -24
Cc1nc(-c2cccc(C(F)(F)F)c2)sc1C(=O)O | -32 | -4 | i | 1 | 6 | -4 | 2 | x
CC(Sc1nnnn1-c1ccccc1)C(=O)Nc1ccc(N2CCN(C)CC2)cc1 (centres undefined) | -8 | -10 | i | 4 | 58 | -3 | -3 | -12
COc1ccc(C(=O)OCC(=O)Nc2cc(S(=O)(=O)N3CCOCC3)ccc2N2CCCC2)cc1 | 16 | 2 | i | 0 | -16 | -3 | 2 | x
CCCC(=O)N(Cc1cc(=O)[nH]c2ccccc12)c1ccc(C)cc1 | 6 | 8 | i | 2 | -12 | -11 | -4 | 12
COc1ccc(Cl)cc1S(=O)(=O)N1CCCC(C(=O)NCc2ccccn2)C1 (centres undefined) | 11 | x | i | x | 0 | 1 | -1 | x
Cn1c(N)c(C(=O)CSc2nc3ccccc3c(=O)n2CCCN2CCOCC2)c(=O)n(C)c1=O | -8 | -8 | i | 1 | 0 | -2 | 4 | x
Cc1cc(C)n2nc(SCC(=O)NC3CCCC(C)C3C)nc2n1 (centres undefined) | 3 | x | i | x | 0 | 2 | 3 | -2
COc1ccc(C(=O)C2CCCN(Cc3cnc(N4CCCC4)s3)C2)cc1OC (centres undefined) | -14 | -3 | x | -4 | 0 | -1 | 6 | x
CC(=O)C1=C(O)C(=O)N(c2ccc(S(N)(=O)=O)cc2)C1c1ccccc1F (centres undefined) | x | -2 | i | 16 | 14 | 1 | 5 | -19
Cc1nc2ccccn2c(=O)c1NC(=O)c1ccco1 | -28 | x | x | x | x | 3 | 8 | -9
CCOc1ccc(NC(=O)COc2ccc(C(=O)NC3CCCc4ccccc43)cc2OC)cc1 (centres undefined) | 6 | 12 | i | -6 | -9 | -7 | 0 | x
CCOc1ccc(S(=O)(=O)N2CCN(S(=O)(=O)c3ccc(C)c(C)c3)CC2)cc1 | 7 | 2 | i | 8 | x | -9 | -1 | -7
O=C(COC(=O)c1ccccc1Nc1ccccc1F)c1ccccc1 | 8 | 7 | i | 9 | -5 | -1 | -1 | x
CCCCOC(=O)c1ccc(NC(=O)/C=C/c2cccs2)cc1 | 16 | -10 | i | 54 | 14 | -5 | -11 | -7 | eIF4H inh retest=-4;PABP polyA inh retest=-4
Cc1noc(C)c1C(=O)Nc1nc2ccc(Cl)cc2s1 | -36 | -5 | i | -9 | 3 | 0 | -4 | 0
(listing goes on)
SMILES | Env fusion inh | eIF4H inh | Rce1 inh | PABP polyA inh | CSC inhib | MT1-MMP act inh | MT1-MMP act inh RFP | UUG fidelity | others
CCN(CC(=O)Nc1ccc(C(=O)Nc2ccc(OC)cc2)cc1)Cc1nc2ccccc2c(=O)[nH]1 | -13 | -10 | i | -1 | -10 | -4 | -4 | x
CC1(C)Cc2cccc(OCC(=O)N3CCN(c4ccc(F)cc4)CC3)c2O1 | -3 | x | i | x | -3 | 4 | -1 | -8
Cc1cc(N2CCN(C)CC2)nc2ccc(NC(=O)CCC(=O)N3CCN(c4ccc([N+](=O)[O-])cc4)CC3)cc12 | 7 | 2 | i | 2 | 39 | 3 | -12 | 7
Cc1oc(-c2ccccc2)nc1CS(=O)CC(=O)NC1CCCCCC1 (centres undefined) | 14 | -1 | i | 15 | 11 | -2 | 2 | 8
O=C(C[n+]1ccccc1)Nc1ccc(Oc2ccccc2)cc1 | 5 | 8 | i | 1 | 29 | -1 | -3 | x
Cc1cc(C(=O)NN=C(CCC(=O)O)c2cccs2)c(C)o1 | x | x | x | x | -7 | 3 | 1 | -16
Cc1c(C(=O)Nc2ccncc2)oc2c1C(=O)CC(C)(C)C2 | x | 5 | i | -6 | 4 | 18 | -2 | -1
CON(C)C(=O)CCN(Cc1ccccc1)C(=O)OC(C)(C)C | 2 | x | x | x | x | -1 | -1 | -5
CN(C)CC(CCCCC(CN(C)C)C(=O)c1ccccc1)C(=O)c1ccccc1 (centres undefined) | -64 | -1 | i | 9 | x | -1 | 3 | x
C/C(CCc1ccc2c(c1)OCO2)=N\NC(=O)c1ccccc1 | -5 | 11 | i | -10 | -5 | 3 | 4 | x
Cc1cccc(NS(=O)(=O)c2cccc(C(=O)NCC(c3ccco3)N3CCCCC3)c2)c1 (centres undefined) | 8 | x | i | x | -7 | 2 | -3 | -5
COc1ccc(N2CCN(CC(=O)Nc3ccccc3C(=O)NC(C)c3ccccc3)CC2)cc1 (centres undefined) | 7 | x | x | x | x | -2 | -1 | -5
COc1cccc(CNC(=O)Cc2ccc(S(=O)(=O)N3CCOCC3)s2)c1 | 29 | x | i | x | -5 | -1 | 3 | -6
Cc1ccccc1Cn1cnc2c(oc3ccccc32)c1=O | -13 | 8 | i | 4 | 19 | -5 | -5 | -13
Cc1ccc(S(=O)(=O)NC2=NCN(Cc3cccnc3)CN2)cc1 | -2 | 1 | i | 62 | -15 | -2 | -1 | -19 | eIF4H inh retest=2;PABP polyA inh retest=6
CC(=O)Nc1ccc(NC(=O)Cc2ccc(-c3ccccc3)cc2)cc1 | 3 | -8 | i | 2 | 4 | 2 | 1 | -2
CCC1CCCCN1C(=S)NC(=O)c1ccc(F)c(S(=O)(=O)N2CCOCC2)c1 (centres undefined) | 9 | 1 | i | 40 | 8 | 7 | 3 | x
Clc1ccccc1CSC1=NCCCN1 | 9 | 8 | i | 8 | -7 | 3 | -2 | x
Cc1ccc(C(=O)OC/C(O)=C(\C#N)c2nc3ccccc3[nH]2)cc1S(=O)(=O)N1CCOCC1 | -94 | 13 | i | 6 | 15 | 3 | -4 | x
Cc1ccccc1C(=O)NC(CC(C)C)C(=O)OCc1cc(=O)n2cc(Br)ccc2n1 (centres undefined) | -38 | 3 | i | -9 | 3 | 1 | 3 | x
CCc1n[nH]c(=S)n1/N=C/c1ccc(NC(C)=O)cc1 | -26 | -10 | i | 1 | x | -6 | -3 | -21
CN(C)S(=O)(=O)c1cccc(NC(=O)COc2ccccc2C(=O)NCc2ccccc2)c1 | -2 | x | x | x | x | -3 | -9 | 5

The list is partial; rates above refer to the full screens.
